Screens: PubChem, National Center for Advancing Translational Sciences (NCATS)
Sfp PPTase inh: Sfp phosphopantetheinyl transferase inhibition. Q9F4F7. Biochemical Sfp PPTase activity, qHTS. Potency, µM, for the others: max response, negative = inhibition, most hits filed as inhibitors. 310,000 compounds, 3.5% hits; active = well fitted inhibition curve with a large enough effect; inconclusive = small, poorly fitted or top-dose-only effect, or another doubt; inactive = no such curve, though single readings can be large or run the other way;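 also: the enzyme is Sfp with the accession as filed and its product quenches rhodamine fluorescence; potency is read from the fitted curve at half-maximal effect; 0% = enzyme reaction without inhibitor and -100% = no enzyme wells; top concentration of the series not given in the record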
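Fluorescence-quenching assay with 15 nM Sfp, 5 uM rhodamine-CoA and 12.5 uM BHQ-2-labelled ybbR peptide in pH 7.6 Hepes/MgCl2 buffer. Enzyme was pre-incubated with compound for 15 min at room temperature. Rate was taken from the 30-min fluorescence change (525/598 nm).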
D2 ag: activates the human D2 dopamine receptor; activation, % (test concentration not listed); 360,000 compounds, 0.084% hits; P14416; DiscoveRx PathHunter D2 beta-arrestin, luminescence, 90 min; 100% = 57 uM dopamine signal; in the data active = activation above about 40%; inconclusive = about 15% to 40%; inactive = below about 15%; also: compound concentration not given in the record; the text of the record calls up to 30% inactive
Target sequence (P14416 whole entry, looked up): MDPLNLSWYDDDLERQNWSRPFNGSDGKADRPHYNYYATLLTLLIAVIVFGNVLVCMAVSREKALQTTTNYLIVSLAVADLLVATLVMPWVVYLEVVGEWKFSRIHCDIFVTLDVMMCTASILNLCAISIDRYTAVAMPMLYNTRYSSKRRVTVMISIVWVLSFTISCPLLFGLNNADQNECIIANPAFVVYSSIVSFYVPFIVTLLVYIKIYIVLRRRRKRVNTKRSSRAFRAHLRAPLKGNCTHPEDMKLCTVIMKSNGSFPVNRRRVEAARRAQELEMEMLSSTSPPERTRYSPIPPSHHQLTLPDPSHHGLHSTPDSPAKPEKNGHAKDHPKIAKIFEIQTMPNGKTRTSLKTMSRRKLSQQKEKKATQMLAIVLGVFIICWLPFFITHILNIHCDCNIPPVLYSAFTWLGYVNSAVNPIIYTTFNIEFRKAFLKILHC
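DiscoveRx PathHunter D2 beta-arrestin cells (2,100/well) attached overnight, then compound-stimulated 90 min at 37 C in HBSS/10 mM HEPES/0.1% Tween-20 buffer; beta-galactosidase complementation read by luminescence after 1 h at ambient temperature. Dopamine 57 uM final (EC100) as control.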
gsp agonist: gsp mutant agonism; gsp mutant cells, cAMP HTRF, 30 min; control for the full effect not named in the record; 340,000 compounds, 0.13% hits; AID 624287; Potency, µM (doses to about 76.9 µM), without a hit: at the highest dose activation (cAMP increase), actives largely listed as activators; active = well fitted activation curve with a large enough effect; inconclusive = small, poorly fitted or top-dose-only effect, or another doubt; inactive = no such curve, though single readings can be large or run the other way; cell line not stated here;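 also: phosphodiesterase inhibitor Ro 20-1724 added with compounds to block cAMP breakdown; potency is read from the fitted curve at half-maximal effect; nearly all actives have a fitted effect of over 60% in size; about a fifth of the inactives were tested at one dose only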
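Cells in DMEM/10% FBS with G418 were pretreated with compounds in DMSO plus […] (300 uM stock) for 30 min at 37C. cAMP was measured by HTRF (cAMP-d2 plus anti-cAMP antibody-K) after 30 min at room temperature.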
PINK1 expr mod: PINK1 expression modulation | PINK1 immunofluorescence, high-content cytometry, 24 h | Potency, µM (top dose mostly 76.6 µM), for inactives: at the top dose activation (PINK1 increase), hits mostly activators | 410,000 compounds, 0.2% hits; active = well fitted activation curve with a large enough effect; inconclusive = small, poorly fitted or top-dose-only effect; inactive = flat fitted curve, though single readings scatter; cell line not stated here;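 also: potency is read from the fitted curve at half-maximal effect; % of control where 0% means no effect; nearly all actives have a fitted effect of over 65% in size; a mitochondrial uncoupler was the plate control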
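Stable cell line, 250 cells/well, 12 h attachment; compounds pinned at 5 concentrations, 24 h; CCCP control. Fixed with nuclear dye, primary antibodies 12 h at 10 degrees C, secondary plus cell stain; laser-scanning cytometer read.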
gsp antagonist: antagonizes gsp, the McCune-Albright syndrome mutation | gsp-mutant cells, cAMP HTRF, 30 min; control for the full effect not named in the record | Potency, µM (doses to about 76.9 µM), without a hit: at the top dose activity change, negative = inhibition, usual class: inhibitors | 340,000 compounds, 0.4% hits | AID 624288; active = falling curve of any shape with a large fitted effect; inconclusive = falling curve, mostly with a smaller effect; inactive = flat or rising curve; cell line not stated here;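 also: intracellular cAMP measured with PDE inhibitor Ro 20-1724 present during compound exposure; potency is read from the fitted curve at half-maximal effect; % is scaled to controls: 0 for no effect and ±100 for the full control effect; nearly all actives have a fitted effect of over 65% in size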
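HTRF cAMP measurement after 30 min RT detection following 30 min, 37C compound treatment alongside […] (added as 300 uM solution) in G418-selected cells seeded at 2000/well and grown 16–24 h.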
ClpP mod: qHTS Assay for Activators of ClpP | AID 651965, 2013 | Potency, µM (doses to about 57.5 µM), for inactives: at the top dose activity change, negative = active | ATP-dependent Clp protease proteolytic subunit (Bacillus subtilis (strain 168)), P80244 | 340,000 compounds, 1.9% hits | purified B. subtilis ClpP, FRET peptide cleavage, 20 min; active = well fitted falling curve with a large enough effect; inconclusive = small, poorly fitted or top-dose-only effect; inactive = no such curve, though single readings can be large or run the other way; also: potency is read from the fitted curve at half-maximal effect; the source files actives as falling curves though it sought activators and does not explain the sign; nearly all actives have a fitted effect of over 65% in size; many hits overshoot -100%
Target sequence (P80244 whole entry, looked up): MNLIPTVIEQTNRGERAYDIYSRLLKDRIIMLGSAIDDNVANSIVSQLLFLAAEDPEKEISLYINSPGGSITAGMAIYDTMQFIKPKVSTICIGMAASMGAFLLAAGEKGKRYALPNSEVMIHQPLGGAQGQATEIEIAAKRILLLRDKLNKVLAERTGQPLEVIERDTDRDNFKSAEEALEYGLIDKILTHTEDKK
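FRET quenching reversal measured ClpP activation: 10 microg/mL B. subtilis ClpP at pH 8 with the FRET-FV decapeptide, read at 430 nm after 320 nm excitation. The 20-min minus 0-min signal was scaled between DMSO/no-enzyme wells and ADEP (5.8 microM final).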
Menin MLL FP FL: menin-MLL binding inhibition, fluorescein peptide; Fluorescence polarization, fluorescein-MLL peptide displacement from menin; FP activity change, % at 61.4 µM; 290,000 tested, under 10 active; AID 1766; inconclusive = falling polarisation curve, or a change in total fluorescence; inactive = total fluorescence flat and polarisation flat or rising; no compound was filed as active; the % refers to the polarisation; negative = inhibition;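 also: % of control where 0% means no effect; inhibitors lower the polarisation; unlabelled MLL peptide was the positive control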
Starred values were filed as active, the others as inactive; ? = inconclusive; · = not tested or not shown; [ ] = remark or other dose.

SMILES	Sfp PPTase inh	D2 ag	gsp agonist	PINK1 expr mod	gsp antagonist	ClpP mod	Menin MLL FP FL
COc1ccc(S(=O)(=O)N2CCN(CC(=O)N3CCOCC3)CC2)cc1OC	·	-5.2	-9.6%[15.4 µM]	-0.5%	16.5%	-17.6%	·
O=c1ccc(S(=O)(=O)N2CCCC2)cn1Cc1ccc(Cl)cc1Cl	·	-6.4	10.3%	2.6%	-21.3%	-1.4%	·
O=C(O)c1cc2c(cn1)[nH]c1ccccc12	1.6%	0.0	-4.4%	0.0%	6.7%	·	11.7
Cc1cccc(-n2ccc(=O)c(C(=O)Nc3ccc(S(=O)(=O)Nc4nccc(C)n4)cc3)n2)c1	22.9%	-1.0	?	0.8%	-0.8%	0.3%	·
Cc1cccc(NC(=O)Cn2nnc3ccccc32)c1	23.0%	-4.6	2.4%[15.4 µM]	1.9%	7.4%	·	-0.1
COc1ccc(CC(=O)N2CCNC2=O)cc1	-0.5%	-5.9	?	-2.4%	3.0%	-0.4%	1.1
Cc1nn(C)c(C)c1S(=O)(=O)N1CCCC(C(=O)NC2CCCCC2)C1 (stereo not drawn)	22.5%	-0.9	-49.3%[inhibitor]	-1.1%	9.3%	0.2%	-0.1
Cc1ccc(-c2cc(C(=O)OCC(=O)NC3CC3)c3ccccc3n2)cc1	·	-3.2	-8.7%	10.5%	-18.8%	4.7%	·
CC1(C)Cc2c(sc3nc(-c4ccccc4Cl)n(N)c(=O)c23)CO1	5.4%	3.5	-2.9%	4.3%	-10.6%	-1.2%	-1.1
O=C(COc1ccc2c(c1)OCO2)Nc1ccc(Cl)cn1	-6.4%	4.1	2.0%	11.5%	-5.7%	·	-2.0
CC(=O)c1ccc(N2CCN(C(=O)c3noc4c3CSc3ccccc3-4)CC2)cc1	1.3%	1.4	6.6%	11.0%	5.8%	-2.7%	2.3
COc1ccc(C2=CC(=O)CC(C)(C)C2)cc1OC	·	-2.0	·	-0.7%	10.9%	-6.8%	·
CCN(CC(=O)Nc1ccccc1C(F)(F)F)C(=O)CSCC(=O)Nc1cc(C)on1	·	-0.1	-7.9%	-0.2%	-10.3%	-2.1%	·
CC[C@H]1OC(=O)[C@H](C)[C@@H](O[C@H]2C[C@@](C)(OC)[C@@H](O)[C@H](C)O2)[C@H](C)[C@@H](O[C@@H]2O[C@H](C)C[C@H](N(C)C)[C@H]2O)[C@](C)(O)C[C@@H](C)CN(C)[C@H](C)[C@@H](O)[C@]1(C)O	12.4%	-0.8	·	-0.1%	-8.5%	-2.9%	-2.2
O=C(Nc1ccc2nc3n(c(=O)c2c1)CCCCC3)C(=O)N1CCN(c2ccc(F)cc2)CC1	12.0%	1.2	-1.4%	-1.2%	2.2%	-4.1%	·
O=C(OCc1nc2ccsc2c(=O)[nH]1)c1ccc(Cl)nc1	·	-4.0	15.9%	2.6%	-4.2%	2.8%	·
CCCCCCCCCc1nc(N)n[nH]1	9.0%	-9.4	8.8%	1.6%	6.4%	0.6%	2.5
O=c1cc(CSc2ccc(Cl)cc2)[nH]c2[nH]n(-c3ccccc3)c(=O)c12	2.8%	-3.3	-3.3%[15.4 µM]	2.6%	4.7%	·	-1.2
C[C@H](NC(=O)N1CCn2c1nc1ccccc12)C(=O)NCCc1ccccc1	5.8%	-3.5	0.9%	-0.7%	-10.1%	-1.5%	·
CCn1c(SCc2nc3ccccc3c(=O)[nH]2)nc2ccccc2c1=O	-4.1%	2.1	10.6%	5.2%	0.1%	-9.2%	0.3
O=C(c1ccc(F)cc1)N1CCCCC(Sc2nnc3ccccn23)C1=O (stereo not drawn)	7.1%	-1.4	18.6%	?	3.4%	2.3%	0.5
CC(=O)N1CCN(Cc2nc3cc(NC(=O)c4ccc(Cl)cc4)ccc3n2C)CC1	-3.6%	2.0	-2.2%	?	-26.2%	-2.5%	-3.0
CC1(C(=O)O)CCN1C(=O)COc1ccc(Cl)cc1 (stereo not drawn)	·	-2.5	·	1.1%	·	-1.2%	·
O=C(CSc1nnc(C2CC2)n1C1CC1)N1CCN(c2ccc(O)cc2)CC1	·	0.1	-86.5%[inhibitor]	-1.4%	·	-2.2%	·
CCc1nnc(NC(=O)CCNC(=O)c2ccco2)s1	11.4%	-7.4	?	3.1%	-2.8%	·	-14.0
Cc1nc2nc(SCC(N)=O)[nH]c2cc1Br	-4.8%	-2.0	9.0%	4.1%	2.7%	15.8µM*	-0.8
OC(COc1ccc(OCc2ccccc2)cc1)CN1CCOCC1 (stereo not drawn)	-16.6%	2.0	-5.2%	1.6%[38.3 µM]	8.5%	0.0%	4.4
O=C(c1ccc(CSc2nc3ccncc3[nH]2)cc1)N1CCCCC1	-22.4%	2.7	?	0.5%	9.0%	-0.7%	1.8
CC(C)CCNC(=S)Nc1ccc2nc3n(c(=O)c2c1)CCCCC3	11.2%	1.3	?	0.9%	-0.4%	2.8%	2.2
O=C(Nc1ccc(N2CCN(C(=O)c3ccccc3)CC2)c(Cl)c1)c1cccnc1	2.6%	3.9	3.4%	-3.2%	?	-0.4%	1.4
CCC(C)(C(=O)NC1CCCCC1)N(C(=O)c1ccccn1)c1ccc(C)cc1 (stereo not drawn)	8.8%	-3.1	10.1%	-4.1%	-4.6%	0.4%	0.1
C=CC[C@H](CC(=O)NCCO)C(=O)NC[C@@H](OC(=O)[C@@H](CC=C)CC(=O)OC(C)(C)C)c1ccccc1	·	1.7	-36.7%[inhibitor]	-0.4%	4.5%	-3.3%	·
CSc1nc(C)c(C(=O)Nc2ccccc2)c(C)c1C#N	11.1%	0.2	18.7%	7.6%[38.3 µM]	2.2%	-7.9%	5.2
COc1cccc(Cn2c(=O)c(CCc3ccccc3)nc3cnc(N4CCN(C)CC4)nc32)c1	?	·	·	-0.2%	·	·	22.2
CCOc1cc2[nH]c(=S)n(CCN3CCCCC3CC)c(=O)c2cc1OCC (stereo not drawn)	8.7%	-0.6	4.0%	-2.0%	3.3%	0.2%	11.7
COCCNC(=O)c1ccccc1NC(=O)Nc1ccccc1	-11.9%	-0.9	-18.6%[15.4 µM]	-1.9%	·	·	-0.3
CCC(C)[C@H]1CNCCN1CCC12CC3CC(CC(C3)C1)C2 (stereo partly drawn)	·	-4.3	-6.1%	3.0%	10.7%	0.5%	·
CCOc1nc2c(c(=O)n(C)c(=O)n2C)n1Cc1ccccc1Cl	9.7%	0.7	19.5%	1.6%[38.3 µM]	-11.3%	-3.0%	2.9
COc1ccc(N2C(=O)CC(NNC(=O)c3cc(C)oc3C)C2=O)cc1 (stereo not drawn)	18.7%	-4.5	?	1.8%	-4.9%	0.2%	0.3
Cc1ccc(OCc2ccc(C(=O)NN)o2)c([N+](=O)[O-])c1	9.9%	4.3	4.0%	0.6%	-0.7%	0.7%	-1.3
O=C(NCCCN1CCOCC1)/C(=C/c1ccco1)NC(=O)c1ccccc1	11.8%	-1.0	-7.4%[15.4 µM]	1.7%	2.6%	·	-6.1
CC(=O)Nc1ccc(C=CC(=O)c2ccc([N+](=O)[O-])cc2)cc1	·	14.9	-8.5%	0.8%	·	-0.3%	·
O=C(NCCCn1ccnc1)c1cc(-c2cccnc2)nc2ccc(Br)cc12	-4.0%	-1.7	24.1%[15.4 µM]	2.4%	-12.5%	-6.3%	-0.8
Cc1ccc(SCC(=O)NCCCN2CCOCC2)cc1	7.9%	-4.0	-23.0%	0.0%	9.6%	-5.3%	-0.4
Cc1cccc(NC(=O)c2ccc3[nH]c(=O)c(=O)[nH]c3c2)n1	20.0%	-2.5	4.8%	3.2%	3.3%	-16.3%	0.4
CC(C)OCCCn1c(SCC(=O)Nc2ccccc2C(F)(F)F)nc2nccnc2c1=O	16.4%	2.1	39.8µM*	2.5%	10.7%	-1.6%	·
COc1ccc(C2NCCC3(O)CCCCC23)c(OC)c1OC (stereo not drawn)	23.0%	-2.0	5.8%	3.2%[38.3 µM]	10.3%	0.8%	-0.9
Cc1occc1C(=O)N1N=C(C2CC2)CC1(O)C(F)(F)F (stereo not drawn)	10.7%	1.2	6.1%	-1.0%	-3.4%	-2.3%	1.0
COc1ccc(CCNC(=O)c2ccc(CS(=O)Cc3ccc(Cl)cc3)o2)cc1OC (stereo not drawn)	7.9%	1.7	-25.4%	2.3%	-13.1%	0.9%	·
CCc1nn(C(C)C(=O)N2CCN(c3ccc(OC)cc3)CC2)c(=O)c2cc3occc3n12 (stereo not drawn)	-1.8%	-3.3	35.1%	3.3%	2.2%	-12.6%	1.9
The listing continues.
SMILES	Sfp PPTase inh	D2 ag	gsp agonist	PINK1 expr mod	gsp antagonist	ClpP mod	Menin MLL FP FL
COc1cc2ccccc2cc1C(=O)Nc1ccc(C)cc1	-8.5%	2.7	4.8%	?	31.6µM*	-1.7%	-0.4
O=S1(=O)C=C(SCCN2CCCCC2)c2ccccc21	16.3%	-1.7	-2.0%	-0.5%	11.6%	1.8%	-0.3
COc1cc(CN2CCNC(=O)C2CC(=O)N(C)CCN2CCOCC2)cc(OC)c1 (stereo not drawn)	2.0%	-2.2	-0.9%	-0.2%	3.3%	-5.3%	-9.7
O=C(Nc1ccncc1)C1CC1c1ccccc1 (stereo not drawn)	-2.1%	3.5	-46.6%[inhibitor]	0.4%	-15.7%	3.7%	2.2
O=C(Nc1ccnn1C1CCN(Cc2ccccc2OC(F)F)CC1)c1cccnc1	12.0%	-4.9	-18.4%	-0.3%	6.6%	·	3.9
O=C(O)c1cccc(NC(=O)c2cccc(S(=O)(=O)Nc3cccc([N+](=O)[O-])c3)c2)c1	13.2%	-2.1	8.0%[15.4 µM]	-1.5%	2.4%	?	-1.0
COc1ccc(C2=Nc3nc(-c4ccccc4)cn3C(c3ccc(OC)cc3)C2)cc1 (stereo not drawn)	-8.7%	-3.6	?	1.6%	-12.9%	-12.5%	4.1
CCCc1nnc(NC(=O)CCC(=O)N2CCN(CCn3c(C)ccc3C)CC2)s1	-3.1%	-1.1	1.7%	0.3%	8.4%	2.5%	-1.1
COc1ccc(S(=O)(=O)N2CCN(C(=O)NCc3ccc(C)cc3)CC2)cc1	15.7%	-1.5	0.1%[15.4 µM]	2.0%	-7.0%	·	2.6
Cc1cccc(NC(=O)NCc2cccnc2)c1C	10.8%	0.5	?	0.8%	10.9%	-2.9%	·
O=S1(=O)CCC(=Nc2ccc(Cl)cc2)c2ccsc21	9.9%	0.8	-47.8%[inhibitor]	-0.9%	0.9%	-1.0%	1.5
